From PubChem
GALR2 ag: activates the human galanin receptor 2; GALR2-expressing cells, agonist activation read-out; activation, %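 (tested at 5 µM)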; 140,000 tested, 0.48% active; AID 803;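 active means above mean plus 3 SD of all compounds, about 5% in these data, not always enough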;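 further: 0% = vehicle buffer wells and 100% = reference agonist at full effect; tested in CHO reporter cells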
RGS16-Gao: RGS16-Galphao interaction regulator (human). O15492+P09471. bead-based flow cytometry RGS16-Galphao binding, fluorescence; actives lie on both sides. binding response (% of control), % at 10 µM. 220,000 tested, 0.38% active;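 active means below 25% or above 175%, edge rows of some plates excepted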;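 further: Galphao activated by GDP with aluminum fluoride before binding; 100% = wells without compound and 0% = beads without RGS; some results beyond the cut were filed as inactive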
PKD1 kinase inh: PKD1 (human) kinase inhibition. Q15139. PKD1 kinase fluorescence polarization assay. inhibition, %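 (about 10 µM by stock and volumes)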. 200,000 tested, 0.056% active. AID 797;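 active means inhibition of 50% or more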;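 further: controls were vehicle for no effect and a reference inhibitor for full effect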
Target sequence (Q15139 whole entry, looked up): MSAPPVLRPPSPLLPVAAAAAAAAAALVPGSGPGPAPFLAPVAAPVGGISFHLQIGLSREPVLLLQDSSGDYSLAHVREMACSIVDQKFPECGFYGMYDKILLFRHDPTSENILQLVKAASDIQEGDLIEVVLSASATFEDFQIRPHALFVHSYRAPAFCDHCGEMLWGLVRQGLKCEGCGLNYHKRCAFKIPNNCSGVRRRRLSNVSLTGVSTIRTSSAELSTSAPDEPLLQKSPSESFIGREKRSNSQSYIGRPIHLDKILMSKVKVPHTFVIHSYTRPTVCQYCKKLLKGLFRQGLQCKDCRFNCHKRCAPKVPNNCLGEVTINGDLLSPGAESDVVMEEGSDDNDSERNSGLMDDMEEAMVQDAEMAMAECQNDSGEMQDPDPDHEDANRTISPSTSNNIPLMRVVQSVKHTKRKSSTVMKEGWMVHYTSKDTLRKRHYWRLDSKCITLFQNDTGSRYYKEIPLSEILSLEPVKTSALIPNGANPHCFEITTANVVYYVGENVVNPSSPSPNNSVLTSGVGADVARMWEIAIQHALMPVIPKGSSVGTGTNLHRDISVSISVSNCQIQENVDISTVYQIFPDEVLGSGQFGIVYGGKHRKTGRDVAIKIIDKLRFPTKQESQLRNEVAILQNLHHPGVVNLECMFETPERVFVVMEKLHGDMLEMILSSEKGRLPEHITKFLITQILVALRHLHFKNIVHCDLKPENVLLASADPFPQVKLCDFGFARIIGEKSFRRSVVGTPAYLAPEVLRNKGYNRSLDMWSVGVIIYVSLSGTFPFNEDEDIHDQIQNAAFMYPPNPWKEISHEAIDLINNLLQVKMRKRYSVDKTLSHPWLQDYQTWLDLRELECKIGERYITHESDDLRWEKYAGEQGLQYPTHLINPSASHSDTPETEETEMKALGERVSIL
Insulin prom inh: TRM-6 insulin promoter activity inhibition | TRM-6 cells (human fetal islet line), insulin promoter-eGFP reporter, imaging; reporter expression induced with tamoxifen | inhibition, % at 2 µM | 130,000 tested, 0.9% active;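 active means inhibition above the mean plus 3 SD, with well images judged a real hit on visual review, cut at about 60% in these data, passing the limit was not always enough; inconclusive means inhibition over the cutoff but images rejected on review; inactive means inhibition not above the cutoff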
HSV replic up: increases HSV replication in cells. 220,000 tested, 0.005% active. AID 1956. maximum fold increase. HSV replication augmentation in cells, fold increase;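 active means peak rise of 1.5-fold or more in the series; inconclusive means self-fluorescent or not available for retest; tested in PC3 cells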;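 further: first round at 10 µM; read as green reporter fluorescence; hits show the peak of a series up to 25 µM; 1 = signal of infected wells without compound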
Insulin prom inh cell count: second read-out of Insulin prom inh, no call of its own (marks repeat the call); normalized cell count, %; measured here: cell count, toxicity; reference of the scale not given here;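 cells exposed to compound for 48 h; stained nuclei by imaging scaled within each plate; lower means fewer cells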
HSV replic up primary fold: second read-out of HSV replic up, no call of its own (marks repeat the call); fold increase; compound at 10 µM; measured here: primary screen fold increase 10 uM; tested in PC3 cells;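 GFP signal in the first replicate; 1 = infected wells without compound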
* = called active by the depositor; i = inactive; ? = inconclusive; . = no result given; & = joins results of further samples.

Order of results: GALR2 ag, RGS16-Gao, PKD1 kinase inh, Insulin prom inh, Insulin prom inh cell count, HSV replic up, HSV replic up primary fold
> CCN(CC)Cc1cc2ccccc2c2c1COC2
  -0.7, 95, 4, -27, 79, i, 0.96
> COC(=O)/C(=C/Nc1ccc(O)cc1)[N+](=O)[O-]
  9.6, 91, 1, -12, 109, i, 0.83
> COc1cccc(NC(=O)N2CCCC(C(=O)NCc3ccc(F)cc3)C2)c1 (centres undefined)
  -2.8, 104, -5, -38, 95, i, 0.85
> Cc1nnc(SCCn2c(N3CCCC(C)C3)nc3c2c(=O)n(C)c(=O)n3C)s1 (centres undefined)
  -1.5, 68, 0, ., ., i, 0.73
> C/C(=N\N1CCN(Cc2ccc(C)cc2)CC1)c1ccco1
  -0.8, 104, -12, -17, 70, i, 0.96
> S=C(NCc1cccs1)NCC1CCCO1 (centres undefined)
  ., 102, 1, 0, 111, i, 1
> CN(C)c1ccc(N=Nc2ccccc2C(=O)OCC(=O)Nc2ccccc2C(F)(F)F)cc1
  -1.4, 87, -1, 27, 112, i, 0.94
> CSc1ccccc1NC(=O)COC(=O)Cc1cccs1
  ., 94, 9, 41, 116, i, 1
> Cc1ccc(S(=O)(=O)NCCC(=O)NCc2ccco2)cc1
  -1.7, 93, -16, 44, 87, i, 0.91
> O=S(=O)(Nc1ccc2ccccc2n1)c1ccc2c(c1)CCO2
  ., 88, ., ., ., i, 1.1
> COc1cccc(NC(=O)Cn2nc(Cc3cccnc3)c3ccccc3c2=O)c1
  0.0, 106, -1, ., ., i, 0.91
> CCN(CC#CCC1(O)c2ccccc2-c2ccccc21)C(C)C
  -2.0, 106, -1, 13, 117, ., .
> CC1(OC(=O)C2CCCC2)C(=O)C=C2C=C(c3ccsc3)N(Cc3ccco3)C=C2C1=O (centres undefined)
  ., 95, ., ., ., i, 1.1
> Cc1cccc(NC(=O)c2cccc(C(F)(F)F)c2)c1
  ., 102, 4, ., ., i, 0.99
> N/N=C1\CCCc2nonc21
  ., 112, -10, ., ., i, 1
> Cc1cccc(NC(=O)CCn2ccnc2C)c1
  -0.5, 13*, -4, -19, 55, i, 0.94
> COc1ccc(CCN(Cc2cc3cc(C)ccc3[nH]c2=O)C(=O)N2CCCC2)cc1OC
  -1.4, 93, -1, -52, 114, i, 1
> NC(=O)/C(=C\c1ccccc1)NC(=O)c1ccc(NC(=O)c2ccccc2)cc1
  ., 97, ., ., ., i, 0.94
> COC(=O)[C@H](CC(C)C)NC(=O)Nc1ccc(F)cc1
  ., 106, ., ., ., i, 1.1
> COC(CN(C(=O)CCl)C(C(=O)NC1CCCCC1)c1ccccc1C)OC (centres undefined)
  0.2, 124, -1, ., ., i, 1
> CCOC(=O)Cc1csc(NC(=O)CN2C(=O)c3ccccc3S2(=O)=O)n1
  -0.7, 97, -4, ., ., i, 0.77
> CCOC(=O)CNC(=O)Cn1cnc2ccc(S(=O)(=O)N3CCC(C)CC3)cc2c1=O
  -1.7, 108, -6, ., ., i, 0.89
> O=C(N/N=C/c1cccc(O)c1)c1ccccc1O
  ., 95, ., ., ., i, 0.96
> COc1ccc(NC(=S)NNc2ccc([N+](=O)[O-])cc2S(=O)(=O)Nc2ccc(C)cc2C)cc1
  -1.1, 111, 2, -21, 102, i, 0.89
> COc1ccccc1CN1C[C@@H]2C[C@@H](c3ccc(C)cc3)N3CCC[C@@]23C1=O
  ., 101, -5, ., ., i, 1.1
> Cc1ccc(S(=O)(=O)NCCSc2nnc(N)s2)cc1
  -2.0, 109, -9, 47, 77, i, 1.2
> CN(Cc1cccnc1)C(=O)CNC(=O)c1ccc(Cl)cc1Cl
  ., 103, 0, ., ., i, 0.97
> CCOC(=O)c1cn[nH]c1C(F)(F)F
  ., 102, ., ., ., i, 1.1
> COc1cc(C(=O)Nc2ccc(C)cn2)c([N+](=O)[O-])cc1OC
  ., 101, -4, ., ., i, 1
> Cc1ccc(C)n1-c1ccc(-c2ccn[nH]2)cc1
  ., 100, -3, ., ., i, 0.83

(list continues)
Order of results: GALR2 ag, RGS16-Gao, PKD1 kinase inh, Insulin prom inh, Insulin prom inh cell count, HSV replic up, HSV replic up primary fold
> CCCCNC(=O)Nc1c(C(=O)OC)[nH]c2ccc(C)cc12
  -1.7, 103, 1, -8, 70, i, 0.98
> Cc1cc(C)[n+]2n1C(=O)C(c1ccccc1)=C2[O-]
  -3.4, 104&106, -3&-6, 63, 92, i, 0.92&0.95
> COCCNC(=O)C(c1ccco1)N(C(=O)Cn1nnc2ccccc21)c1ccccc1C (centres undefined)
  -2.9, 100, -10, 26, 153, i, 0.72
> CCOC(=O)c1ccc(NC(=O)c2ccccc2[N+](=O)[O-])cc1
  -1.3, 97, -15, -3, 123, i, 0.87
> O=c1c(Cc2ccc(F)cc2)c(O)ccn1Cc1ccc(F)cc1
  ., 96, 3, ., ., i, 1
> COc1ccc(-c2csc(NC(=O)CSc3ncn[nH]3)n2)cc1OC
  ., 100, -5, ., ., i, 0.9
> Cc1ccc(C(=O)Oc2cc(C)[nH]c(=O)c2[N+](=O)[O-])cc1
  ., 105, -2, -15, 111, ., .
> O=C(CNCc1cccs1)Nc1ccc(S(=O)(=O)N2CCCCC2)cc1
  ., 129, 1, 0, 76, i, 0.94
> CC(C)(CO)CNC(=O)CC1C(=O)NCCN1CC(c1ccccc1)c1ccccc1 (centres undefined)
  ., 100, -3, ., ., i, 1.1
> Cn1c(=O)c2c(nc(N/N=C/c3cccs3)n2Cc2ccc(Br)cc2)n(C)c1=O
  1.2, 103, -13, 20, 108, i, 0.74
> CC(C)NC(=O)CSc1nc2[nH]ncc2c(=O)[nH]1
  ., 96, 2, 7, 143, i, 1
> CCCCCNC(=O)c1ccc2c(=O)n(CC3CCCO3)c(=S)[nH]c2c1 (centres undefined)
  ., 99, -3, 20, 76, i, 0.99
> O=C(CSCCO)Nc1ccccc1
  -0.7, 101, -8, -14, 176, i, 1
> Cc1cc(C(=O)Nc2ccc(S(=O)(=O)Nc3onc(C)c3C)cc2)c(C)o1
  -0.4, 100, -4, -13, 103, i, 1.1
> CCOc1ccc(CCN2C(=O)c3cccnc3C2=O)cc1OCC
  ., 98, 0, 68*, 95*, i, 1.1
> FC(F)(F)c1cccc(NC(=S)N2CCN(c3ccccc3)CC2)c1
  1.6, 104, -9, 42, 198, i, 0.95
> CN(C)C(=S)SCC(=O)NCc1ccc(F)cc1
  ., 99, -3, ., ., i, 1
> O=Cc1ccc(-c2ccc(Cl)cc2Cl)[nH]1
  ., 15*, -1, ., ., i, 0.96
> CCNc1nc2ccccc2[nH]1
  -2.1, 120, 4, ., ., i, 1
> COc1cc(C(=O)Oc2ccc3c(c2)OCC3=O)cc(OC)c1OC
  -1.5, 110, -9, -34, 72, i, 1.1
> O=CNC(=O)c1ccccc1C(=O)O
  0.7, 106, 2, 43, 40, i, 0.88
> O=S(=O)(CC(CN1CCOCC1)N1CCOCC1)c1ccccc1 (centres undefined)
  ., 99, 4, 18, 90, i, 0.99
> CC(C)CCNC(=O)CCS(=O)(=O)c1cccc2nonc12
  -1.2, 95, -4, ., ., i, 1
> O=S(=O)(NCCSc1ccccc1)c1ccc(F)cc1
  -2.0, 102, 4, -21, 62, i, 0.79
> CCOc1ccccc1Nc1nnc(SCC(=O)Nc2nc(-c3ccc(OC)cc3)cs2)s1
  ., 101, 0, -20, 120, i, 0.94
> CCC(=O)Nc1ccc(C(=O)N2CCN(C(=O)c3ccco3)CC2)cc1
  ., 109, 3, -33, 113, i, 0.98
> Cc1cccc(C2NC(c3cccc(C)c3)C([N+](=O)[O-])C(C)(C)C2[N+](=O)[O-])c1 (centres undefined)
  -0.2, 103, -3, -27, 91, i, 1.1
> CN(C)CCn1c(=S)[nH]c2ccccc2c1=O
  1.1, 94, -2, -29, 133, i, 0.93
> O=C(CCc1ccccc1)N1N=C(c2ccncc2)CC1(O)C(F)(F)F (centres undefined)
  ., 104, 3, 13, 88, i, 0.89
> O=C(COc1ccc(Cl)cc1)NCc1nnc(SCC(=O)NC2CCCC2)o1
  -2.1, 98, -2, -24, 144, ., .

The listing continues.
Order of results: GALR2 ag, RGS16-Gao, PKD1 kinase inh, Insulin prom inh, Insulin prom inh cell count, HSV replic up, HSV replic up primary fold
> C#CCOCCOCCOCCNc1nc(N2CCN(C(=O)[C@H](CCC(=O)O)n3cc(C(N)CC(C)C)nn3)CC2)nc(N2CCN(C(=O)[C@H](Cc3cc4ccccc4[nH]3)n3cc(C(N)CC(C)C)nn3)CC2)n1 (some centres undefined)
  ., 95, 0, ., ., ., .
> Cc1ccc(C)c(NC(=S)NCc2cccn2C)c1
  -3.2, 104, 3, 9, 121, ., .
> C/C(=N\N1CCN(C2c3ccccc3-c3ccccc32)CC1)c1cccnc1
  -1.4, 100, 9, -11, 144, i, 0.98
> COc1ccc(CNC(=O)Cc2csc(Nc3nc(=S)[nH]c4ccccc34)n2)cc1
  0.5, 95, -8, -16, 110, ., .
> COc1ccc(OCC(=O)NCc2cccnc2)cc1
  -1.3, 103, -9, 6, 104, ., .
> COc1ccc(C2=NOC(COC(=O)c3ccc4ccccc4n3)C2)cc1 (centres undefined)
  -0.9, 107, -18, -3, 98, i, 0.91
> COc1ccc(C(N)=O)cc1NC(=O)CC(O)(C(F)(F)F)C(F)(F)F
  -1.1, 97, -6, 10, 127, i, 0.7
> C#CCSc1nnc(-c2ccccc2)c(=O)[nH]1
  -0.7, 10*, -3, 11, 161, i, 0.87
> Cc1ccc(S(=O)(=O)N2N=C3CCCCC3C2(O)C(F)(F)F)cc1 (centres undefined)
  ., 97, 8, 17, 65, i, 0.89
> CN(C)c1oc(-c2ccco2)nc1C#N
  -1.9, 94, -4, 0, 169, i, 0.94
> COc1ccc(CCn2c(N3CCN(C)CC3)nc3c2c(=O)[nH]c(=O)n3C)cc1
  -2.2, 103, 1, -31, 106, i, 0.97
> O=C(NC1CCCc2ccccc21)c1cccc(Br)c1 (centres undefined)
  -0.7, 76, -13, -67, 93, i, 1
> COC(=O)C1=C(C)N(c2ccc(F)cc2)C(=O)C1
  -1.0, 100, 4, 32, 127, i, 0.99
> O=S(=O)(Nc1cccc2ccccc12)N1CCCC1
  -1.5, 101, 3, 20, 102, i, 0.96
> Cc1cc(C(=O)NCc2cc(C(=O)O)oc2C)c(C)o1
  -4.4, 95, -4, 0, 179, i, 1.1
> Cc1ccc(NC(=O)CNCc2ccccc2)c(Br)c1
  ., 98, 5, -4, 116, i, 0.93
> CSc1cccc(NC(=S)NN(C)C)c1
  ., 99, ., ., ., i, 0.89
> Cc1noc(N)c1C(=O)Nc1ccc(F)c(Cl)c1
  0.6, 101, 2, ., ., i, 1
> CC(C)NC(=O)COc1ccccc1C#N
  ., 98, -4, ., ., i, 1
> CC(C)N(Cc1ccccc1)CC(O)COc1ccc(S(=O)(=O)N2CCOCC2)cc1Cl (centres undefined)
  ., 104, -2, ., ., i, 0.78
> Fc1c(F)c(F)c(N=Cc2ccc3ncccc3c2)c(F)c1F
  -0.4, 107, 9, -53, 156, i, 1
> N#CC1=C(S)N(c2ccc(F)cc2)C(c2cccs2)NC1=O (centres undefined)
  -2.4, 104, -8, 6, 159, i, 0.94
> CC(=O)c1ccc(Nc2c3c(c(C#N)c4nc5ccccc5n24)CCC3)cc1
  1.1, 63, -3, ., ., ?, .
> CCC(C)Nc1nc(-c2ccc3c(c2)NC(=O)CO3)cs1 (centres undefined)
  -1.1, 97, -1, 41, 31, i, 1
> O=C(Cc1ccccc1)NCC(=O)OCC(=O)c1ccccc1Cl
  ., 106, -5, ., ., i, 0.95
> COC(=O)C1=C(C)N(c2ccc(Cl)cc2)/C(=C/c2ccc(O)cc2)C1=O
  ., 107, -7, ., ., i, 1
> CCOP(=O)(OCC)C(Nc1cccc([N+](=O)[O-])c1)c1ccc(N(C)C)cc1 (centres undefined)
  ., 98, ., ., ., i, 0.88
> O=C(O)c1ccc(-n2nnnc2Oc2cccc3cccnc23)cc1
  -3.8, 102, -5, 36, 113, i, 1.1
> Cc1nc(N)sc1C(=O)N/N=C/c1cccnc1
  ., 96, 1, 14, 124, i, 0.99
> CCCc1c(OCCCCc2nn[nH]n2)ccc(C(C)=O)c1O
  -1.9, 93&103, 3, 52, 94, i, 0.86
> CN1CCN(C2=CC3=CC(=C(C#N)C#N)CCC3CC2)CC1 (centres undefined)
  ., 113, -2, i, 104, ?, .
> O=C(c1ccc(Cl)cc1)N1CCC(c2nc(-c3cccs3)no2)CC1
  0.0, 103, -4, ., ., i, 1.1
